# VDR inhibitor = vitamin D3 receptor (human) inhibition | 0.93% of 400,000 active | AID 504847 | Potency, µM, for the others: max response, negative = inhibition, most hits filed as inhibitors | P11473 | VDR-SRC2-3 peptide fluorescence polarization, 2 h; active means well fitted inhibition curve with a large enough effect; inconclusive means small, poorly fitted or top-dose-only effect, or another doubt; inactive means no such curve, though single readings can be large or run the other way; further: series mostly up to about 120 µM
# Target sequence (P11473 whole entry, looked up): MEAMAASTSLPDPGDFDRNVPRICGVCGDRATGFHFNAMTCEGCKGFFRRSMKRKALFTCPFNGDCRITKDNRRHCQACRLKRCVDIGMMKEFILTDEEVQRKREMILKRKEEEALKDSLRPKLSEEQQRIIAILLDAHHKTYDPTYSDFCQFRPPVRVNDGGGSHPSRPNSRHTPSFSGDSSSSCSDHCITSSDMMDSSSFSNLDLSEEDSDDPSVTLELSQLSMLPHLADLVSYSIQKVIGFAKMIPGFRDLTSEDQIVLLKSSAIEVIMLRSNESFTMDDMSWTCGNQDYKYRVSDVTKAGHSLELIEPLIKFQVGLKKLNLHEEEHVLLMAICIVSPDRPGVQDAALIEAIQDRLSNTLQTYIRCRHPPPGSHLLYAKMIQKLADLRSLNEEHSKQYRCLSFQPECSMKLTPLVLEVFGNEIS
#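 Fluorescence polarization assay of small-molecule disruption of VDR binding to coregulator peptide SRC2-3. Compounds and controls pin-transferred, then read after 2 h incubation at ambient room temperature.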
# * marks the source's active call; other numbers are inactive results; ? = inconclusive; & = joins results of further samples; [ ] = remark or other dose. On the % scale 0 is the no-effect control and ±100 the full control effect; potency means the concentration at half of the fitted maximal effect. Some of the compounds tested. The share of hits here may be higher or lower than overall.
nr	mol	VDR inhibitor
1	CC(=O)Nc1ccc(SCC(=O)N(CCC#N)c2ccc(C)cc2)cc1	-14%
2	COCCN(C(=O)CNC(=O)c1ccco1)C(C(=O)NC1CCCC1)c1ccc(OC)cc1 (stereo unspecified)	-13%
3	O=C(O)c1ccc(Nc2ccc([N+](=O)[O-])c3nonc23)cc1	8%
4	CCc1nc2ccccc2n1CC(=O)N1CCN(S(=O)(=O)c2cccc(C(F)(F)F)c2)CC1	2%
5	C=CCN1C(=O)C2(OCCCO2)c2cc(Cl)ccc21	1%
6	CC(=O)C1=C(C)N(Cc2ccccc2)C(=O)N[C@H]1c1cccc(C(F)(F)F)c1	4%&-30%
7	Cc1cc(C)n2nc(C(=O)OCC(=O)N(CCC#N)c3ccc(F)cc3)nc2n1	-14%
8	COc1cc2c(C(=O)N(C)c3cc(Cl)ccc3OC)cn(CC(C)C)c(=O)c2cc1OC	-9%
9	O=C(COc1ccc(Br)cc1Cl)NC(=O)Nc1ccc2c(c1)OCCO2	11%
10	COc1ccc(C)cc1NC(=O)CSc1nc2ccccc2nc1N1CCCCC1	-16%
11	Cc1cc(Nc2cccc(Cl)c2)nc(NCc2ccccc2)n1	-20%
12	CSC1=NC2(CCCCC2)C2=C(CCCC2)N1	1%
13	O=C(/C=C/c1cccnc1)c1ccc([N+](=O)[O-])cc1	?
14	CC(C)CNC(=O)c1nn(Cc2ccccc2)c(=O)c2ccccc12	-16%
15	COc1cc(OC)nc(NC(=O)CN2CCN(c3ccc(F)cc3)CC2)n1	10%
16	COc1ccc(S(=O)(=O)NCC(=O)NCc2cc(=O)n(C)c(=O)n2C)cc1F	-13%
17	Cn1c(=O)c2sccc2n2c(CCCC(=O)N3CCN(c4ccccn4)CC3)nnc12	9%
18	Cc1ccc(NC(=O)NCCCN2CCOCC2)cc1	1%
19	NCCC[C@@H](CC(=O)N[C@@H]1CCNC[C@H]1C(=O)N[C@H](CC(=O)N[C@@H](CCC(=O)O)CC(=O)O)Cc1c[nH]c2ccccc12)NC(=O)C[C@H](Cc1c[nH]c2ccccc12)NC(=O)[C@@H]1CNCC[C@H]1N	2%
20	NC(=O)c1ccc[n+]([C@@H]2O[C@H](COP(=O)([O-])OP(=O)(O)OC[C@H]3O[C@@H](n4cnc5c(N)ncnc54)[C@@H](O)[C@@H]3O)[C@@H](O)[C@@H]2O)c1	-5%
21	O=C(Nc1ccccc1C(F)(F)F)c1cc(-c2ccc3c(c2)OCCO3)on1	-9%
22	COc1cccc(COCCN2CCN(S(=O)(=O)c3ccc(C)cc3)CCC2=O)c1	?
23	COC(=O)Cn1c(O)c(N=NC(=O)CNC(=O)c2ccc3c(c2)OCCO3)c2ccccc21	7%
24	COc1cc(C)nc(NS(=O)(=O)c2ccccc2Cl)n1	-8%
25	COc1ccc(CCC(=O)c2c(O)cc(OC3OC(CO)C(O)C(O)C3O[C@@H]3OC(C)C(O)C(O)C3O)cc2O)cc1O (stereo partly specified)	-5%
26	COc1ccc(/C([O-])=C(/C(=S)Nc2ccc(C)c(C)c2)n2c[n+](C)c3ccccc32)cc1OC	-16%
27	Cc1ccc(N2CCN(c3ccc(C)cc3)C2c2ccncc2)cc1	-19%
28	CCc1ccccc1S(=O)(=O)Cc1ccc(C(=O)NC(C)C)o1	-4%
29	CCOC(=O)c1c(NC(=O)CSc2n[nH]c(-c3ccco3)n2)sc(C)c1C	-2%
30	Cc1cc(O)c(-c2cc(C(=O)NCc3ccc4c(c3)OCO4)[nH]n2)cc1C	2%

# An excerpt of these results, as labelled records:
15. COc1cc(OC)nc(NC(=O)CN2CCN(c3ccc(F)cc3)CC2)n1
  VDR inhibitor: 10%

16. COc1ccc(S(=O)(=O)NCC(=O)NCc2cc(=O)n(C)c(=O)n2C)cc1F
  VDR inhibitor: -13%

17. Cn1c(=O)c2sccc2n2c(CCCC(=O)N3CCN(c4ccccn4)CC3)nnc12
  VDR inhibitor: 9%

18. Cc1ccc(NC(=O)NCCCN2CCOCC2)cc1
  VDR inhibitor: 1%

# Next section
nr	mol	VDR inhibitor
31	Cc1cc(=O)c(C(=O)O)cn1-c1ccc(C(C)C)cc1	-8%
32	COc1cc(C)c(/C=C(\C#N)C(=O)Nc2cccc(C)c2)cc1C(C)C	7%
33	CC1Cn2c(nnc2-c2cc3ccccc3cc2O)S1 (stereo unspecified)	-8%
34	CCOc1ccccc1CNS(=O)(=O)c1ccc2c(c1)C(C)(C)C(=O)N2C	-13%&16%
35	COCCC1CCCCN1C(=O)c1cc(COc2ccc(-n3cncn3)cc2)on1 (stereo unspecified)	-1%
36	O=C(CCNC(=O)Cn1cnc2ccccc2c1=O)NCC1COc2ccccc2O1 (stereo unspecified)	-16%
37	COc1ccc(C(=O)O)cc1S(=O)(=O)Nc1cccc(C)c1	-5%
38	CC(C)(C)OC(=O)C[C@@H]1C/C=C\C[C@@H](CC(=O)N(CCO)Cc2ccccc2)C(=O)NCCOC1=O	-9%
39	Cc1ccc(C(=O)CSc2nnc(-c3ccco3)o2)o1	-4%
40	CNCc1cc(Cl)cc(OC)c1OC(C)C	15%
41	O=C(CSc1ccccc1C(=O)NCCCN1CCCC1=O)NCc1ccco1	?
42	COc1ccc(C(=O)NNC(=O)C(=O)NCc2ccccc2)cc1	-3%
43	Cc1ccc(C(=O)NCC(c2cccs2)S(=O)(=O)c2cccs2)cc1C (stereo unspecified)	7%
44	O=C(NC(=S)Nc1cccc(Cl)c1N1CCCCC1)c1ccc2c(c1)OCCO2	-5%
45	c1cncc(-c2nc(NCC3CCCO3)c3ccccc3n2)c1 (stereo unspecified)	8%
46	O=C(CCS(=O)(=O)c1cc2c(cc1Cl)NC(=O)CO2)NCCc1ccc(Cl)cc1	-2%
47	COc1cccc(CNC(=O)CCN2C(=O)[C@@H]3Cc4ccccc4CN3C2=O)c1	?
48	COc1ccc(C2C(C(=O)NCc3ccccn3)c3ccccc3C(=O)N2C)cc1OC (stereo unspecified)	-13%
49	N#Cc1cc([N+](=O)[O-])ccc1NC(=O)COC(=O)C1CCC(=O)N1 (stereo unspecified)	6%
50	O=C(OCCN1CCCCC1)C1(c2ccccc2)CCCC1	3%
51	COc1ccc(-n2ccn3c(CC(C)(C)CC(=O)O)nnc3c2=O)cc1	-2%
52	c1coc(CSCc2cn3cccnc3n2)c1	6%
53	CC1(C)CC(=O)C2=C(C1)N(c1ccccc1)C(N)=C(C#N)C2c1ccsc1 (stereo unspecified)	-7%
54	Oc1[nH]c2ccc(Br)cc2c1N=NC(=S)N1CCOCC1	-8%
55	COc1ccc(-c2cc(C)nc(SCc3cccc(C(=O)O)c3)n2)cc1	2%
56	COc1ccc(Cl)cc1C(=O)Nc1ccc2c(c1)OCO2	-7%
57	CCOC(=O)C1(CC2CC2)CCN(Cc2cnc(-c3ccc(OC)cc3)nc2)CC1	7%
58	O=C(OCC1OC(n2ccc(=O)[nH]c2=O)C(Cl)C1O)c1ccccc1 (stereo unspecified)	-12%
59	Cc1cc(=O)oc2cc(O[C@@H]3O[C@H](CO)[C@@H](O)[C@H](O)[C@H]3O)ccc12	-5%
60	COc1ccc(C2C(C#N)=C(N)OC3=C2C(=O)CC(C)C3)c(OC)c1OC (stereo unspecified)	-2%

# Next part:
nr	mol	VDR inhibitor
61	COC(=O)c1cc2sccc2n1Cc1nc(-c2cccc(Br)c2)oc1C	-16%
62	CCn1cc(C(=O)N2CCCC(C(=O)c3ccc4ccccc4c3)C2)cn1 (stereo unspecified)	10%
63	COc1ccc(C)cc1N=Nc1ccc(O)c2ncccc12	3%
64	CN(CC(=O)Nc1ccc(F)cc1)S(=O)(=O)c1ccc2c(c1)c(=O)n(C)c(=O)n2C	7%
65	Cn1cnc2c(NCc3ccccc3)nc(NCCO)nc21	3%
66	O=C1NCCOC(=O)[C@H](Cc2ccc(F)cc2)C/C=C\C[C@H]1CC(=O)N(CCO)Cc1ccccc1	-4%
67	CC(C)N(C(=O)[C@H]1C[C@H](CC(=O)NCCCn2ccnc2)C(=O)N2CCc3c([nH]c4cc(-c5ccco5)ccc34)[C@]12C)C(C)C	-12%
68	COc1ccc(-c2c(-c3cc(OC)cc(OC)c3)n(C)c3ccc(-c4cccc5[nH]ccc45)cc23)cc1	-15%
69	c1cncc(CNc2ccc3c(c2)OCO3)c1	-16%
70	CC(C)n1c(O)c(N=NC(=O)Cn2ccc(C(F)(F)F)n2)c2ccccc21	19%
71	CCN1CC2=C(OC(N)=C(C#N)C2c2cccs2)/C(=C\c2cccs2)C1 (stereo unspecified)	17%
72	Cc1ccc(C(=O)CSc2nccn2-c2ccccc2)cc1	-16%
73	Cc1ccc(NC(=O)Cn2nnc(-c3nc(-c4ccncc4)no3)c2N)c(C)c1	17%
74	C=CC[C@H](CC(=O)N(CCO)Cc1ccccc1)C(=O)N[C@H](COC(=O)[C@@H](CC=C)CC(=O)OC(C)(C)C)c1ccccc1	-17%
75	CCn1ccc(C(=O)Nc2ccsc2C(=O)OC)n1	-5%
76	COc1ccc(NC(=O)COC(=O)C2CC(=O)N(Cc3ccc(C)cc3)C2)cc1 (stereo unspecified)	0%
77	O=C(NC1CCCC1)C(c1ccncc1)N(C(=O)c1ccco1)c1ccccc1 (stereo unspecified)	-2%
78	CSc1nc(Cc2ccccc2)cc(=O)[nH]1	24%
79	CCS(=O)(=O)c1ccc(OC)c(N=Nc2ccc(O)c3ncccc23)c1	2%
80	CC(C)N1CC(COc2ccccc2Cl)OC1=O (stereo unspecified)	-12%
81	CNCCOc1nc(N2CCOCC2)nc(C)c1[N+](=O)[O-]	-9%
82	CC(C)CC(=O)NC(=S)Nc1ccc(S(=O)(=O)NC(C)(C)C)cc1	-8%
83	CC(C)(C)c1ccc(NC(=O)c2ccc3c(c2)S(=O)(=O)c2ccccc2C3=O)cc1	9%
84	COc1ccc(C2CC(=O)Oc3cc(O)cc(O)c32)cc1 (stereo unspecified)	-2%
85	O=C1OCCC1Sc1ncnc2sc3c(c12)CCC3 (stereo unspecified)	14%
86	Cc1sc2c(c1C)c(=O)n(Cc1ccccc1)c(=O)n2Cc1ccc(F)cc1	1%
87	CCOCc1[nH]c(=S)[nH]c(=O)c1Cc1ccc(OC(C)C)cc1	-4%
88	CCC(=O)N1N=C(c2ccc(C)o2)CC1c1ccc(OC)cc1 (stereo unspecified)	13%
89	COc1ccc(/C(N)=N/OC(=O)c2ccc(Br)o2)cc1	-7%
90	COc1ccc(N=NC2C(=O)N(c3ccccc3)N=C2C)cc1 (stereo unspecified)	0%

# (cont.)
nr	mol	VDR inhibitor
91	COC(=O)c1ccc(NC(=O)C2CC(=O)OC2c2ccccc2)cc1 (stereo unspecified)	14%
92	CCC1CCCCN1S(=O)(=O)c1ccc(C(=O)Nc2nnc(-c3ccccc3Cl)o2)cc1 (stereo unspecified)	10%
93	O=C(O)c1ccc(COc2ccccc2/C=C2\NC(=O)N(Cc3ccc(F)cc3)C2=O)cc1	-4%
94	CC(=O)OCC(=O)[C@@]1(O)CC[C@H]2[C@@H]3CCC4=CC(=O)CC[C@]4(C)[C@H]3[C@@H](O)C[C@@]21C	-5%&-8%
95	CCc1ccc(S(=O)(=O)c2cn(C)c3cc(OC)c(OC)cc3c2=O)cc1	-10%&3%
96	Oc1ccc2ccccc2c1N=Nc1ccc(F)cc1	34%[activator]
97	CC(=O)NC(CC(=O)OCC(=O)c1c(N)n(C)c(=O)n(C)c1=O)c1ccccc1 (stereo unspecified)	?
98	Cc1ccc(S(=O)(=O)N2CCC(C(=O)N3CCC3)CC2)cc1	-3%
99	CCC1S/C(=N/N=C/c2cccs2)NC1=O (stereo unspecified)	-13%
100	O=C(CSc1nnc(NC(=O)c2c(F)cccc2F)s1)Nc1ccc(F)cc1	0%
101	CCC(C(=O)OCC(=O)Nc1cccc(C(C)=O)c1)c1ccccc1 (stereo unspecified)	-6%
102	CCOc1ccccc1NC(=O)CSc1nccn1-c1cccc(C)c1	14%
103	O=C(Cc1cn2ccsc2n1)OCc1ccccc1	-4%
104	COC(=O)COc1ccc(S(=O)(=O)N2CCOCC2)cc1	-8%
105	CCn1cc(C(=O)N[C@H](C(=O)NCCCN2CCOCC2)C(C)C)c(=O)c2cc3c(cc21)OCO3	-1%
106	CC(=O)Nc1ccc(Cl)cc1C1COC(=O)C1=N (stereo unspecified)	2%
107	C=C[C@@]1(C)CC(=O)[C@@]2(O)[C@@]3(C)[C@@H](O)CCC(C)(C)[C@@H]3[C@H](O)[C@H](OC(C)=O)[C@@]2(C)O1	3%
108	CC(C)C1Oc2ccccc2N(CC(=O)N(C)C2CCCCC2)C1=O (stereo unspecified)	27%
109	O=C(O)CCNS(=O)(=O)c1ccc2c(c1)OCCCO2	8%
110	CCc1nnc(NC(=O)c2ccc(OC)cc2)s1	-9%
111	O=[N+]([O-])c1ccc(Cl)c(S(=O)(=O)/N=C(/c2ccccc2)N2CCOCC2)c1	1%
112	Cc1nc(SCC(C)C)[nH]c(=O)c1Cc1ccccc1	-7%
113	CCCCNC(=O)c1nn2c(C(F)(F)F)cc(-c3ccc(OC)cc3)nc2c1Br	-23%
114	O=C(O)CCCC(=O)N1N=C(c2c(-c3ccccc3)c3cc(Cl)ccc3[nH]c2=O)CC1c1cccs1 (stereo unspecified)	-15%
115	CCC(=O)NNc1ncnc2c1cnn2-c1cccc(C)c1	0%
116	CN(C(=O)c1ccccn1)C1(C(=O)NC2CCCCC2)CCCCC1	1%
117	O=S(=O)(c1ccccc1Cl)N1CCCC1c1nc(-c2cccc(Cl)c2)no1 (stereo unspecified)	-17%
118	COc1cc(=O)[nH]c(SCC(=O)Nc2nc3c(s2)CCCC3)n1	?

# An excerpt from above in order of the VDR inhibitor value, low to high.
nr	mol	VDR inhibitor
110	CCc1nnc(NC(=O)c2ccc(OC)cc2)s1	-9%
98	Cc1ccc(S(=O)(=O)N2CCC(C(=O)N3CCC3)CC2)cc1	-3%
116	CN(C(=O)c1ccccn1)C1(C(=O)NC2CCCCC2)CCCCC1	1%

# Screens from PubChem BioAssay.
